GIRK2 act = activators of human GIRK2 potassium channels; G protein-activated inward rectifier potassium channel 2 (Homo sapiens), P48051; HEK293-GIRK2 thallium flux, Thallos fluorescence; calls only for hits at 25 µM; 0.05% of 63,000 active; AID 1259325, 2017;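 active = among the strongest 0.2% of first-round signals and kept after retests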;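 note: first round at about 10 µM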
Target sequence (P48051 whole entry, looked up): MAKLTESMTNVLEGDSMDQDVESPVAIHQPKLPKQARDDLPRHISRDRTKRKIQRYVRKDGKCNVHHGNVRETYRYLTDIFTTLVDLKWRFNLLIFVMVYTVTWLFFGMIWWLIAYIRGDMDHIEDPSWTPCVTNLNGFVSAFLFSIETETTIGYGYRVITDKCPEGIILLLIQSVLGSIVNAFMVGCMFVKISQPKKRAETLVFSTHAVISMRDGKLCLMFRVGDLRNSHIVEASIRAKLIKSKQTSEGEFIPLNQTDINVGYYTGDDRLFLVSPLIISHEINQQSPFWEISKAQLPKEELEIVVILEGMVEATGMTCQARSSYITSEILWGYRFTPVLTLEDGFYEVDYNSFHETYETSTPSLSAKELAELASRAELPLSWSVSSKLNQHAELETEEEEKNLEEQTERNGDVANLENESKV
Calls only; i = inactive. A portion of the library; count on the stated rates, not on these rows.

GIRK2 act | molecule
i | O=C(NCCc1nc(C2CC2)cc(C(F)(F)F)n1)c1ccco1
i | C=C1CC2C3(C)C(OC(C)=O)CC(=O)OC(C)(C)C3CC(OC(C)=O)C2(C)C2C(=O)OC(C)C(=O)C12C (configuration not stated)
i | CC(=O)Nc1ccc(Nc2ccnc3ccc(F)cc23)cc1
i | Cc1cc(C(=O)N2CCN(Cc3c(C)noc3C)CC2)c(C)o1
i | COc1ccc2ncc(C#N)c(N3CCC(C(=O)NCc4ccc(OC)c(OC)c4)CC3)c2c1
i | COc1cccc(S(=O)(=O)Nc2ccc(C(C)(C)C)cc2)c1
i | Cc1nn(S(=O)(=O)N2CCOCC2)c(C)c1C
i | Cc1ccc(S(=O)(=O)N2CCCc3cc(NS(=O)(=O)c4ccc(Cl)cc4)ccc32)cc1
i | CS(=O)(=O)N1CCC(CNC(=O)c2ccc(OC(F)(F)F)cc2)CC1
i | Cc1ccc(=O)n(C(C)C(=O)N2CCN(CCc3ccccc3)CC2)n1 (configuration not stated)
i | COc1ccc(CC(=O)N2CCC(CSc3nc(C)cs3)CC2)cc1
i | COc1cccc(-n2nnc(-c3nc(C)c(C(=O)N4CCN(c5ccccc5)CC4)s3)c2C)c1
i | Cc1ccc(Oc2ccc(N(C)S(=O)(=O)c3c(C)noc3C)cc2)nn1
i | COc1c(C(O)CC(C)C)ccc2c1C(=O)OCc1cc(C)cc(O)c1O2 (configuration not stated)
i | Nc1nc(SCC(=O)Nc2nsc(-c3ccc(Cl)cc3)n2)n[nH]1
i | CCOc1ccc(N(C)S(=O)(=O)c2ccsc2C(=O)NCCc2cccs2)cc1
i | Cn1c(=O)c2c(nc(NCC(=O)O)n2CC(O)COc2ccccc2Cl)n(C)c1=O (configuration not stated)
i | COc1cccc(-n2nnc(-c3nc(C)c(C(=O)NCc4cc(F)cc(F)c4)s3)c2C)c1
i | O=C(NCCc1ccccc1)NCc1ccc(C(=O)c2cccs2)s1
i | CN(C)C(CNC(=O)C(=O)Nc1ccc(OC(F)(F)F)cc1)c1ccc2c(c1)CCO2 (configuration not stated)
i | COc1ccccc1C(=O)Oc1ccc2c(c1)O/C(=C\c1ccc(OC)c(OC)c1OC)C2=O
i | COc1ccc(CCNC(=O)NCC2COC3(CCCC3)O2)cc1 (configuration not stated)
i | CCOc1ccccc1NC(=O)Cn1c2ccccc2c2ncn(Cc3nc(C4CC4)no3)c(=O)c21
i | COc1ccc(SCCCC(=O)Nc2nnc(-c3ccc4c(c3)OCCO4)o2)cc1
i | CSc1nc2ccc3nc(NC(=O)c4c(C)cnn4C)sc3c2s1
i | CN(C)C(CNC(=O)/C=C/c1ccccc1)c1cn(C)c2ccccc12 (configuration not stated)
i | Cc1oc(-c2ccc(OC(C)C)cc2)nc1Cn1c(=O)n(C(C)C)c(=O)c2ccccc21
i | C#CCSc1nnc(C(C)C)c2cnn(-c3ccc(F)cc3)c12
i | COc1ccc(NC(=O)Nc2cnc(N3CCCC3)nc2)c(C)c1
i | CCc1nccn1CC1CCN(C(=O)Nc2c(F)cccc2F)CC1
i | Cc1cc(C)n(CC2CCN(S(=O)(=O)c3ccc(Cl)cc3)CC2)n1
i | O=C(NCC(O)(c1ccccc1)C1CC1)Nc1ccccc1Cl (configuration not stated)
i | CC(C)CNC(=O)c1sccc1S(=O)(=O)N1CCN(c2ccc(Cl)cc2)CC1
i | O=C(CCn1c(=O)c2ccccc2n2c(SCC(=O)NC3CCCC3)nnc12)NC1CCCCC1
i | CCOc1ccc(CC(=O)Nc2cc(C3CC3)nn2-c2nc3c(c(=O)[nH]2)CCCC3)cc1
i | COCCCn1c(=O)c2ccccc2n(Cc2nc(-c3cccc(Cl)c3)no2)c1=O
i | CCOc1ccc(S(=O)(=O)NCCn2nc(-c3ccccc3)ccc2=O)cc1
i | O=C(CSc1nc(-c2ccco2)cc(C(F)(F)F)n1)N1CCOCC1
i | CCc1ccc2oc3c(c(=O)c2c1)C(c1cccc([N+](=O)[O-])c1)N(c1cc(C)on1)C3=O (configuration not stated)
i | COc1ccc2nc(OC3CCN(C(=O)/C=C/c4ccco4)CC3)sc2c1
i | O=C(Cc1nnc(-c2cccc(Br)c2)o1)NCc1cccc(C(F)(F)F)c1
i | COc1ccc(CCNC(=O)C(=O)NCCC2CCCCN2S(=O)(=O)c2ccc(C)cc2)cc1 (configuration not stated)
i | COC(=O)c1ccc(NC(=O)CNC(=O)C2CCCCC2)c(C)c1
i | O=C(/C=C/c1ccco1)NCCC(O)C1CC1 (configuration not stated)
i | Cc1ccc(S(=O)(=O)CCC(=O)N(CCN2CCOCC2)c2nc3ccc(F)cc3s2)cc1
i | Cc1cc(C(O)CCNC(=O)c2cc3ccccc3oc2=O)c(C)o1 (configuration not stated)
i | Cc1nnc(C2CCN(C(=O)CCC(=O)c3ccccc3)CC2)s1
i | O=C(Cc1ccc([N+](=O)[O-])cc1)NCc1n[nH]c(=O)c2ccccc12
i | CCOCCn1c(=O)c2c(nc3n2CC(C)CN3c2ccc(CC)cc2)n(C)c1=O (configuration not stated)
i | COc1ccccc1CSc1nc2ccccc2s1
i | CC(C)=CCOc1ccc2c(=O)c(-c3ccccc3)coc2c1
i | CC(C)N1CCC(CNS(=O)(=O)c2ccc(N3CCCCS3(=O)=O)cc2)CC1
i | CCCc1nnsc1C(=O)Nc1nc2c(OC)ccc(C)c2s1
i | COc1cc(OC)c(OC)cc1/C=C1\Oc2cc(OS(C)(=O)=O)ccc2C1=O
i | COc1ccc(-c2c(C)oc3cc(OC(=O)c4ccco4)ccc3c2=O)cc1OC
i | COc1ccc(C2(CNC(=O)c3cc(C4CC4)on3)CCCC2)cc1
i | O=c1c(Oc2ccccc2Br)coc2cc(O)ccc12
i | CC(=O)c1ccc(OCC(=O)NCCOc2cc(N3CCCCC3)ncn2)cc1
i | O=C1CCCN1c1ccc(Cn2nc3ccc(-c4ccc(Cl)cc4)nn3c2=O)cc1
i | COc1ccc2c(c1)c(CC(=O)NCCNC(=O)CC/C(C)=C/Cc1c(O)c3c(c(C)c1OC)COC3=O)c(C)n2C(=O)c1ccc(Cl)cc1

Additional results follow.
GIRK2 act | molecule
i | Cc1ccc2c(c1)c1ncn(Cc3nc(C4CC4)no3)c(=O)c1n2CC(=O)Nc1cccc(Cl)c1
i | CCCN(Cc1ccsc1)C(=O)Nc1cc(Cl)ccc1OC
i | Nc1ccc2c3c(cccc13)C(=O)N(c1ccc([N+](=O)[O-])cc1)C2=O
i | O=C(Nc1ccc(N2CCCS2(=O)=O)cc1)c1ccco1
i | COc1ccc(C2=NC3(CCN(CC(=O)NCc4ccccc4)CC3)NC2=O)cc1
i | O=C(NCc1ccco1)C1CCN(c2nc3ccsc3c(=O)n2Cc2ccc(F)cc2)CC1
i | COc1ccccc1NC(=O)C(=O)NCCC(O)c1cc(C)oc1C (configuration not stated)
i | CC(C)OCCCNC(=O)c1cc2c(=O)n(C)c(=O)n(C)c2n1Cc1ccccc1
i | COc1ccccc1OCCCC(=O)NC(C)c1ccccc1 (configuration not stated)
i | CCSc1nnc(NC(=O)c2ccc(OCc3nc(C)cs3)cc2)s1
i | Cc1nc2ccccc2n1CC(O)COc1ccc2c3c(c(=O)oc2c1)CCC3 (configuration not stated)
i | Cn1cnc(S(=O)(=O)NCC2CCN(S(=O)(=O)c3cccnc3)CC2)c1
i | CCNc1cc(NCCNC(=O)c2ccc(Br)o2)nc(C)n1
i | Cc1cc(C)cc(OCCNC(=O)C2CCCN(c3ccc(C)nn3)C2)c1 (configuration not stated)
i | O=C(CCc1ccccc1)Nc1cc(-c2ccco2)nn1-c1nc2c(c(=O)[nH]1)CCCC2
i | Cc1noc(C2(NC(=O)c3ccsc3)CCCCC2)n1
i | CS(=O)(=O)N1CCCc2ccc(NS(=O)(=O)CCN3C(=O)CCCC3=O)cc21
i | Cn1c(SCC(=O)N2CCCCC2)nc2cc(-c3ccccc3)sc2c1=O
i | O=C(NCC1CCN(Cc2ccco2)CC1)Nc1c(F)cccc1F
i | O=C(Cn1cccc(-c2nc(-c3cnccn3)no2)c1=O)Nc1ccccc1F
i | COc1cccc(C(=O)Nc2nsc(-c3ccccc3)n2)c1
i | COc1ccc(CCNC(=O)NCc2nc(C)no2)cc1
i | CCOC(=O)N1CCc2c(sc(NC(=O)c3ccc(C)c(C)c3)c2-c2nc3ccccc3s2)C1
i | CCOc1ccccc1C(=O)Nc1ccc2nc(C)n(-c3ccccc3)c(=O)c2c1
i | CCOC(=O)c1[nH]c(C)c(C(=O)OCC)c1C
i | COc1ccc2nc(-n3nc(C)cc3NC(=O)c3ccccc3OC)sc2c1
i | CCN1CCc2c(sc(NC(=O)c3ccnn3C)c2C(N)=O)C1
i | O=S(=O)(c1ccccc1)N1CCN(CC(O)c2ccco2)CC1 (configuration not stated)
i | Cc1ccc(S(=O)(=O)C2=C(O)C(=O)N(Cc3ccc4c(c3)OCO4)C2c2ccccc2)cc1 (configuration not stated)
i | O=c1cc(CN2CCN(c3ccccc3)CC2)c2cc3c(cc2o1)CCCC3
i | Cc1ccc(S(=O)(=O)N2CCCC(c3nnc(C)s3)C2)c(C)c1 (configuration not stated)
i | CC(=O)N(O)CCCC1NC(=O)CNC(=O)C(CO)NC(=O)CNC(=O)C(CCCN(O)C(C)=O)NC(=O)C(CCCN(O)C(C)=O)NC1=O (configuration not stated)
i | CCn1c(C)c(C(C)=O)c2cc(OCC(O)CNCc3ccco3)ccc21 (configuration not stated)
i | O=C(NCC1CCS(=O)(=O)C1)c1ccc(Cl)cc1Cl (configuration not stated)
i | COc1cccc2sc(N(CC3CCCO3)C(=O)C3CC3)nc12 (configuration not stated)
i | Cc1cccc(-c2noc(C3CCN(CC(=O)Nc4cccc(Cl)c4)CC3)n2)c1

Two compounds picked at random from the list so far:
GIRK2 act | molecule
i | COc1ccc2nc(-n3nc(C)cc3NC(=O)c3ccccc3OC)sc2c1
i | CCn1c(C)c(C(C)=O)c2cc(OCC(O)CNCc3ccco3)ccc21 (configuration not stated)

(further entries)
GIRK2 act | molecule
i | O=S(=O)(NCCCN1CCN(c2ccccc2)CC1)c1ccccc1Cl
i | COc1cccc(OCC(O)CNCc2ccco2)c1 (configuration not stated)
i | O=C(Nc1nc(C(=O)N2CCN(Cc3ccc4c(c3)OCO4)CC2)co1)c1cnccn1
i | O=C(Nc1nc2ccccc2[nH]1)C1CCCN(c2cc(-n3cccn3)ncn2)C1 (configuration not stated)
i | OC(COc1cccc2ccccc12)CN1CCCC1 (configuration not stated)
i | CCc1cccc(NC(=O)CSc2nccnc2N2CCN(c3ccccc3OC)CC2)c1
i | CCCN1C(=O)CCc2cc(NC(=O)COc3ccc(F)cc3)ccc21
i | CCS(=O)(=O)c1ccccc1C(=O)N(CCN1CCOCC1)c1nc2ccc(F)cc2s1
i | CSc1ccccc1C(=O)Nc1ccc2c(c1)CC(=O)N2
i | O=C(CN1CC(c2nc(C3CC3)no2)C1)Nc1ccccc1
i | CN1CCN(C(=O)c2cc(-c3ccccn3)nc3ccccc23)CC1
i | O=c1ccoc2cc(O)c(C3OC(CO)C(O)C(O)C3O)c(O)c12 (configuration not stated)
i | O=C(COc1ccccc1)N1CCC(CNS(=O)(=O)Cc2ccc(C(F)(F)F)cc2)CC1
i | CCOc1ccccc1CN1C(=O)C2(SC(NC(C)=O)=NN2C(C)=O)c2cccc(C)c21 (configuration not stated)
i | Cc1csc(SCC2CCN(C(=O)CSc3ccc(F)cc3)CC2)n1
i | CC(O)(CNC(=O)c1ccc(OC(F)(F)F)cc1)c1cccs1 (configuration not stated)
i | Cn1c(SCC(=O)Nc2ccc3c(c2)OCO3)nc2cc(-c3ccccc3)sc2c1=O
i | Cc1cc(N2CCN(CC#N)CC2)n2nc(C(F)(F)F)c(-c3ccc(Cl)cc3)c2n1
i | COc1cc(OC)c2c(=O)c(-c3ccc(O)cc3)coc2c1
i | CS(=O)(=O)NC(=O)CCCCCCCCCC=C(Br)Br
i | CCOc1ccc(S(=O)(=O)Nc2ccc3c(c2)N(S(=O)(=O)c2ccccc2)CCC3)cc1
i | O=C(/C=C/c1cc2cc3c(cc2nc1Cl)OCCO3)C1CC1
i | Cc1cccc(N2CCN(S(=O)(=O)c3ccccc3)CC2)c1C
i | CCN(CC)C(=O)C(=O)c1c[nH]c2ccccc12
i | COc1ccccc1C1(CNS(=O)(=O)c2c(C)n[nH]c2C)CCOCC1
i | CC(=O)c1ccc(NC(=O)CSc2nccn3nc(-c4ccc(Cl)cc4)cc23)cc1
i | O=C(CSc1nnc(N2CCN(c3ccc(F)cc3)CC2)s1)NCc1ccc(F)cc1
i | Cn1c(C(F)(F)F)nn(CCNC(=O)c2nc3ccccc3s2)c1=O
i | Cc1cn2c3c(=O)n(CC(C)C)c(=O)n(C)c3nc2n1CCc1ccccc1
i | Cc1cc(S(=O)(=O)N2CCN(CCNC(=O)c3ccsc3)CC2)c(Cl)cc1Cl

Rewritten tab-delimited: 15 of the compounds above.
smiles	GIRK2 act
O=C(COc1ccccc1)N1CCC(CNS(=O)(=O)Cc2ccc(C(F)(F)F)cc2)CC1	i
CCOc1ccccc1CN1C(=O)C2(SC(NC(C)=O)=NN2C(C)=O)c2cccc(C)c21 (configuration not stated)	i
Cc1csc(SCC2CCN(C(=O)CSc3ccc(F)cc3)CC2)n1	i
CC(O)(CNC(=O)c1ccc(OC(F)(F)F)cc1)c1cccs1 (configuration not stated)	i
Cn1c(SCC(=O)Nc2ccc3c(c2)OCO3)nc2cc(-c3ccccc3)sc2c1=O	i
Cc1cc(N2CCN(CC#N)CC2)n2nc(C(F)(F)F)c(-c3ccc(Cl)cc3)c2n1	i
COc1cc(OC)c2c(=O)c(-c3ccc(O)cc3)coc2c1	i
CS(=O)(=O)NC(=O)CCCCCCCCCC=C(Br)Br	i
CCOc1ccc(S(=O)(=O)Nc2ccc3c(c2)N(S(=O)(=O)c2ccccc2)CCC3)cc1	i
O=C(/C=C/c1cc2cc3c(cc2nc1Cl)OCCO3)C1CC1	i
Cc1cccc(N2CCN(S(=O)(=O)c3ccccc3)CC2)c1C	i
CCN(CC)C(=O)C(=O)c1c[nH]c2ccccc12	i
COc1ccccc1C1(CNS(=O)(=O)c2c(C)n[nH]c2C)CCOCC1	i
CC(=O)c1ccc(NC(=O)CSc2nccn3nc(-c4ccc(Cl)cc4)cc23)cc1	i
O=C(CSc1nnc(N2CCN(c3ccc(F)cc3)CC2)s1)NCc1ccc(F)cc1	i

Screening results: PubChem, Vanderbilt University
